From PubChem BioAssay
GLA inh pH 4.5: inhibitors of human alpha-galactosidase A at pH 4.5; activity change, negative = inhibition, % at 105 µM; purified enzyme, 4-MU-alpha-Gal fluorescence, pH 4.5; P06280; 230,000 tested, under 10 active; inconclusive = small, poorly fitted or top-dose-only inhibition, or a rising curve; inactive = flat fitted curve, though single readings scatter; no compound was filed as active;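 further: 0% = full activity with enzyme and -100% = basal without enzyme; dose as in the result columns while the protocol names 77 µM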
Rango release inh: prevents RanGTP from dissociating the Rango-importin beta complex. AID 540253. Potency, µM (doses to about 46.1 µM), inactives show top-dose activity change, negative = inhibition. Biochemical FRET Rango-importin beta, RanGTP-induced dissociation. O95149+P62826. 340,000 tested, 0.071% active; active means falling FRET ratio curve, often poorly fitted, with flat reads before Ran was added; inconclusive means other falling curves, or compound fluorescence or quenching; inactive means flat or rising ratio curve;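 further: potency means the concentration at half of the fitted maximal effect; % of control where 0% means no effect; nearly all actives have a fitted effect of over 45% in size; -100% = wells without RanGTP and RCC1; the record marks most hits as doubtful in a second field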
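Compounds preincubate 5 min with complex of recombinant Rango and importin beta in PBS with 1 mM DTT. Ran (0.6 uM) loaded with 2 mM GTP plus 0.2 uM RCC1 starts dissociation; FRET is recorded 45 min later.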
miR-21 reporter: miR-21 reporter, rising signal; HeLa miR-21 FLuc reporter, luciferase, 48 h; Potency, µM (top dose mostly 38.3 µM), without a hit: at the top dose reporter change, positive = more light; 340,000 tested, under 10 active; active = well fitted rising curve with a large enough effect; inconclusive = small, poorly fitted or top-dose-only effect; inactive = no such curve, though single readings can be large or run the other way;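 further: % of control where 0% means no effect; miR-21 action dims this reporter so a rising signal means less miR-21 action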
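HeLa cells stably expressing CMV-driven firefly luciferase with a downstream miR-21 binding sequence, endogenously expressing miR-21, were treated with titrations (up to about 40uM final) for 48 hours at 37 degree Celsius. Luciferase luminescence was read after lysis.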
Rango-impB inh: prevents formation of the Rango-importin beta complex | Q14974 | Rango CFP/YFP FRET sensor + importin beta, 45 min | Potency, µM (series often up to 92.2 µM), inactives show at the highest dose inhibition of complex formation | 340,000 tested, 0.031% active | AID 540263; active = rising FRET ratio curve, often small or poorly fitted; inconclusive = mostly compound fluorescence or quenching in the first reads; inactive = flat curves in all reads;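 further: potency means the concentration at half of the fitted maximal effect; 0% = DMSO wells and 100% = buffer wells lacking importin beta; nearly all actives have a fitted effect of over 15% in size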
Target sequence (Q14974 whole entry, looked up): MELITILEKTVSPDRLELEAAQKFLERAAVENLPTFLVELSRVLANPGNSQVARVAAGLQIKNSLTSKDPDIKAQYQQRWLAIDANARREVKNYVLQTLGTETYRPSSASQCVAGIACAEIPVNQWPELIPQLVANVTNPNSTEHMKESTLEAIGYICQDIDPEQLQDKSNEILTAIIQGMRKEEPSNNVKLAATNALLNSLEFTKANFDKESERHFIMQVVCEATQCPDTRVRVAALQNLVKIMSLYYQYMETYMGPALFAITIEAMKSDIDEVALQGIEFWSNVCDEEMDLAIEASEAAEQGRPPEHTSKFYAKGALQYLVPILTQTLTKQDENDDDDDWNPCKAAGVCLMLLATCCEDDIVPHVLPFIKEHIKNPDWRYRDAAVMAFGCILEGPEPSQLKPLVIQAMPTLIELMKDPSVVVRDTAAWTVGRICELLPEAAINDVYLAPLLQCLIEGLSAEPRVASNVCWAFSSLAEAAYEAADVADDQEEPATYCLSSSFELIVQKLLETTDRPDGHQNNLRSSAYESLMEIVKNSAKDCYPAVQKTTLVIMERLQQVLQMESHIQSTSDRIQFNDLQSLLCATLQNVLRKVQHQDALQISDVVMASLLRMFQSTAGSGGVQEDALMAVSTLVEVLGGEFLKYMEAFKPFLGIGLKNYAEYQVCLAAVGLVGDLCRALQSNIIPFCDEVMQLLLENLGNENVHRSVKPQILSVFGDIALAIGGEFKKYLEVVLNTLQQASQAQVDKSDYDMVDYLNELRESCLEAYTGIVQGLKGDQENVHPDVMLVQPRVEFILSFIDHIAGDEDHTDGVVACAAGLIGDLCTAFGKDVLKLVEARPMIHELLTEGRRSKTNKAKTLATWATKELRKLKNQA
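FRET biosensor Rango (snurportin 1 IBB between N-terminal EYFP and C-terminal Cerulean), 50 nM in PBS/1 mM DTT/0.02% Tween-20/0.1% BSA, preincubated 5 min RT with compound; 0.125 microM importin beta added, 45 min RT, CFP/YFP FRET ratio read.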
* marks the source's active call; other numbers are inactive results; & = joins results of further samples. These rows are one share of the data; rates above refer to the full screens.

What do the screens show for `COc1ccc(NC(=O)Nc2cccc(C)n2)c(OC)c1`?
Rango release inh: 24%; miR-21 reporter: -41%&-44%; Rango-impB inh: 1.9%

How did CCCc1cc(=O)n2[nH]c(NCc3c(F)cccc3Cl)nc2n1 do in these assays?
GLA inh pH 4.5: -1; Rango release inh: 3%; miR-21 reporter: -2%&-4%; Rango-impB inh: -5.2%

How did CN(C)Cc1c(O)ccc2occ(C(=O)c3ccc(F)cc3)c12 do in these assays?
Rango release inh: 1%; miR-21 reporter: -11%; Rango-impB inh: 5.3%

How did c1ccc2c(Oc3ccc4c(c3)OCO4)nncc2c1 do in these assays?
GLA inh pH 4.5: 1; Rango release inh: 0%; miR-21 reporter: -20%; Rango-impB inh: -0.3%

Results for Clc1ccccc1N=Nc1ccccn1 ?
Rango release inh: -5%; Rango-impB inh: -0.3%

What do the screens show for `CCOC(=O)N1CCN(C(=O)C(C)SCc2ccccc2)CC1` (configuration not stated)?
GLA inh pH 4.5: -2; Rango release inh: 11%; miR-21 reporter: -3%; Rango-impB inh: 0.8%

Results for N#Cc1ccc(C(=O)Nc2cccc3ncccc23)c(F)c1 ?
GLA inh pH 4.5: 1; Rango release inh: -18%; miR-21 reporter: 3%; Rango-impB inh: -2.6%

What do the screens show for `CN(C(=O)C=Cc1ccco1)c1ccccc1`?
Rango release inh: -4%; Rango-impB inh: 0.3%

How did COc1ccc(C2=NOC(Cn3nc(C(=O)NCc4ccc5c(c4)OCO5)cc3-c3ccccc3)C2)cc1 (configuration not stated) do in these assays?
Rango release inh: 11%; Rango-impB inh: 1.9%

What do the screens show for `Cc1ccccc1OCCn1cnc2c(N)ncnc21`?
GLA inh pH 4.5: 2; Rango release inh: 1%; miR-21 reporter: -55%; Rango-impB inh: -1.8%

How did COc1ccc2[nH]c3c(c2c1)CCN1C(=O)C(CC(=O)NCc2ccco2)C[C@H](C(=O)N2CCCCC2)[C@@]31C (some centres not stated) do in these assays?
Rango release inh: inconclusive; Rango-impB inh: -1.0%

What do the screens show for `CC(C(=O)N1CCc2ccccc2C1)N(c1ccccc1)S(C)(=O)=O` (configuration not stated)?
Rango release inh: -8%; miR-21 reporter: -2%; Rango-impB inh: -0.9%

How did CC(=O)c1cccc(-n2nnnc2SCC(=O)Nc2ccccc2N2CCCCC2)c1 do in these assays?
GLA inh pH 4.5: -12; Rango release inh: 3%; miR-21 reporter: 14%; Rango-impB inh: 1.1%

What do the screens show for `CN(C)c1ccc(CNc2ccccn2)cc1`?
Rango release inh: 2%; miR-21 reporter: -43%; Rango-impB inh: 5.7%

What do the screens show for `Cc1ccc(S(=O)(=O)C2(C(=O)NCCc3ccccc3)CC2)cc1`?
Rango release inh: 18%; miR-21 reporter: -4%; Rango-impB inh: -0.5%

How did CC(=O)c1c(C)[nH]c(C(=O)Nc2ccc(Cl)cc2)c1C do in these assays?
Rango release inh: -1%; miR-21 reporter: -21%; Rango-impB inh: 0.5%

Results for CC(C)c1ccc(CN2C(=O)c3ccccc3S2(=O)=O)cc1 ?
Rango release inh: -2%; miR-21 reporter: -32%; Rango-impB inh: 6.9%

What do the screens show for `O=C(Nc1c(C(=O)N2CCOCC2)cnn1-c1ccccc1)c1ccccc1F`?
Rango release inh: 5%; miR-21 reporter: -1%; Rango-impB inh: -1.3%

What do the screens show for `COc1ccc2[nH]c(O)c(N=NC(=N)N)c2c1`?
GLA inh pH 4.5: -1; Rango release inh: -9%; miR-21 reporter: -17%; Rango-impB inh: 6.6%

Results for COC(=O)CCC(=O)OC1(C)C(=O)C=C2C=C(C3CC3)N(CC(C)C)C=C2C1=O (configuration not stated) ?
GLA inh pH 4.5: 0&-5; miR-21 reporter: 6%

Results for Cc1nn(Cc2ccc(F)cc2)c(C)c1NC(=O)C1c2ccccc2Oc2ccccc21 ?
GLA inh pH 4.5: -10; Rango release inh: -13%; miR-21 reporter: -5%; Rango-impB inh: -2.9%

How did Cc1onc(-c2ccccc2Cl)c1C(=O)N(Cc1ccc(N(C)C)cc1)C(C)C do in these assays?
Rango release inh: 8%; Rango-impB inh: -1.1%

How did N#CC(c1ccc([N+](=O)[O-])cc1)C(CC(=O)c1ccccc1)c1ccccc1 (configuration not stated) do in these assays?
Rango release inh: 0%; Rango-impB inh: 2.5%

Results for O=C(Cn1c(=S)[nH]c2ccccc2c1=O)NCCc1ccccc1 ?
GLA inh pH 4.5: -1; Rango release inh: -17%; miR-21 reporter: 2%; Rango-impB inh: 0.0%

Results for COc1ccc(OC)c(NC(=O)CCNS(=O)(=O)c2cccc3nonc23)c1 ?
Rango release inh: 19%; miR-21 reporter: -1%; Rango-impB inh: -0.6%

Results for CCOc1ccc(-c2c(C(=O)N/N=C/c3cccnc3)nnn2-c2nonc2N)cc1 ?
Rango release inh: 1%; miR-21 reporter: 0%; Rango-impB inh: -0.2%

Results for CC1CCN(Cc2cnc(Cl)s2)CC1 ?
GLA inh pH 4.5: 5; Rango release inh: 6%; miR-21 reporter: -9%; Rango-impB inh: 5.0%

Results for CCc1nnc(N2C(=O)c3cccc4cccc(c34)C2=O)s1 ?
GLA inh pH 4.5: 2; Rango release inh: -2%; miR-21 reporter: 0%; Rango-impB inh: -6.2%

How did Cc1cc(C(=O)OCC(=O)NCc2cccs2)ccc1[N+](=O)[O-] do in these assays?
Rango release inh: 0%; Rango-impB inh: -2.7%

What do the screens show for `Cc1ccc(NC(=O)CN2CCN(CCN=CC3=C(O)CC(c4ccccc4)CC3=O)CC2)cc1` (configuration not stated)?
GLA inh pH 4.5: -4; Rango release inh: 27%; miR-21 reporter: -1%; Rango-impB inh: -1.9%

Nothing new here: entries from further up.
Results for CCc1nnc(N2C(=O)c3cccc4cccc(c34)C2=O)s1 ?
GLA inh pH 4.5: 2; Rango release inh: -2%; miR-21 reporter: 0%; Rango-impB inh: -6.2%

How did Cc1cc(C(=O)OCC(=O)NCc2cccs2)ccc1[N+](=O)[O-] do in these assays?
Rango release inh: 0%; Rango-impB inh: -2.7%

What do the screens show for `Cc1ccc(NC(=O)CN2CCN(CCN=CC3=C(O)CC(c4ccccc4)CC3=O)CC2)cc1` (configuration not stated)?
GLA inh pH 4.5: -4; Rango release inh: 27%; miR-21 reporter: -1%; Rango-impB inh: -1.9%

More results
Results for COc1cccc(/C=C/C(=O)OCC(=O)NCc2ccco2)c1 ?
GLA inh pH 4.5: 3; Rango release inh: 6%; miR-21 reporter: -4%; Rango-impB inh: -0.4%

How did COc1ccc(CCNC(=O)c2c(Cl)ccc(Cl)c2OC)cc1OC do in these assays?
Rango release inh: 4%; miR-21 reporter: 0%; Rango-impB inh: -0.2%

Results for CCOCCOC(=O)c1[nH]c2c(c1C)C(=O)CC(c1cc(OC)c(OC)c(OC)c1)C2 (configuration not stated) ?
Rango release inh: -10%; miR-21 reporter: 28%; Rango-impB inh: -2.2%

How did CCn1c(SCC(=O)NC2CCCCC2)nc2c(c1=O)SCC2 do in these assays?
Rango release inh: 9%; miR-21 reporter: 2%; Rango-impB inh: -2.1%

What do the screens show for `CCCNC(=O)N1CCN(S(=O)(=O)c2ccc(C)cc2)CC1`?
GLA inh pH 4.5: -4; Rango release inh: 7%; miR-21 reporter: 0%; Rango-impB inh: 7.0%

How did COc1ccc2nc(N3CCCC3)c(C#N)cc2c1 do in these assays?
GLA inh pH 4.5: 2; Rango release inh: inconclusive; miR-21 reporter: -56%; Rango-impB inh: inconclusive

How did Nc1nc(CSc2ncn[nH]2)nc(Nc2ccc(F)cc2)n1 do in these assays?
GLA inh pH 4.5: -7; Rango release inh: 2%; miR-21 reporter: -33%; Rango-impB inh: -2.3%

Results for CNc1nnc(C(F)(F)F)s1 ?
GLA inh pH 4.5: -5; Rango release inh: -8%; miR-21 reporter: 1%; Rango-impB inh: 0.3%

What do the screens show for `CS(=O)(=O)c1ccc(Cl)c(NC(=O)CCN2C(=O)NC3(CCCC3)C2=O)c1`?
Rango release inh: 4%; Rango-impB inh: 6.6%

Results for Cc1ccc(S(=O)(=O)N(CC(=O)Nc2ccc(C)cc2C)C(=O)N2CCN(C)CC2)cc1 ?
Rango release inh: -5%; Rango-impB inh: -3.6%

Results for Cc1nc2cc(C(=O)NCc3ccc4c(c3)OCO4)ccc2n1-c1ccc(Br)cc1 ?
GLA inh pH 4.5: -8; Rango release inh: -7%; miR-21 reporter: -1%; Rango-impB inh: inconclusive

How did CCCOc1ccc2oc(=O)c3c(c2c1)CCCN3C(=O)CN1CCc2ccccc2C1 do in these assays?
GLA inh pH 4.5: -1; Rango release inh: -27%; miR-21 reporter: 30%; Rango-impB inh: -3.8%

How did O=[N+]([O-])c1ccc(Sc2nnnn2-c2ccccc2)nc1 do in these assays?
GLA inh pH 4.5: 7; Rango release inh: 1%; miR-21 reporter: inconclusive; Rango-impB inh: -0.1%

How did O=C(NCCCNC(=O)c1cc(Cl)ccc1Cl)c1ccccn1 do in these assays?
Rango release inh: -7%; miR-21 reporter: -1%; Rango-impB inh: 4.9%

Results for O=C(Nc1ccccc1)NC1CCCCNC1=O (configuration not stated) ?
GLA inh pH 4.5: 2; Rango release inh: -3%; miR-21 reporter: 0%; Rango-impB inh: 0.6%

Results for CS(=O)(=O)c1ccc(-c2nnc(NC(=O)c3cccc(N4C(=O)CCC4=O)c3)o2)cc1 ?
Rango release inh: 25%; Rango-impB inh: -3.7%

What do the screens show for `Cc1oc2cc3c(C(=O)N4CCCCC4)c(C)oc3cc2c1C(=O)N1CCCCC1`?
GLA inh pH 4.5: 5; Rango release inh: -5%; miR-21 reporter: -20%; Rango-impB inh: 3.7%

Results for O=C1C=CC(=O)N1N(c1ccccc1)c1ccccc1 ?
GLA inh pH 4.5: 1; Rango release inh: -1%; miR-21 reporter: -5%; Rango-impB inh: -0.7%

How did Cc1ccc(C)c(Nc2c([N+](=O)[O-])c(=O)oc3ccccc23)c1 do in these assays?
GLA inh pH 4.5: -3; Rango release inh: 1%; miR-21 reporter: 18%; Rango-impB inh: 2.8%

How did CC(=O)c1ccc(NC(=O)c2ccc3c(c2)C(=O)N(c2ccccn2)C3=O)cc1 do in these assays?
Rango release inh: 1%; miR-21 reporter: -2%; Rango-impB inh: 7.7%

How did O=C(CCc1nnc(-c2ccsc2)o1)N1CCc2c(Cl)cccc2C1 do in these assays?
GLA inh pH 4.5: 1; Rango release inh: -13%; miR-21 reporter: -39%; Rango-impB inh: -1.0%

Results for COc1ccc(N(C(=O)c2snc(C(N)=O)c2N)C(C(=O)NC2CCCC2)c2cc(OC)ccc2OC)c(OC)c1 (configuration not stated) ?
Rango release inh: 18%; miR-21 reporter: -1%; Rango-impB inh: 0.8%

Results for CCN(CC)C(=O)CN1CCN(c2ccccc2F)CC1 ?
GLA inh pH 4.5: 0; Rango release inh: -13%; miR-21 reporter: -5%; Rango-impB inh: 4.8%

How did CCOC(=O)COc1cc([N+](=O)[O-])cc2cccnc12 do in these assays?
GLA inh pH 4.5: 9; Rango release inh: 2%; miR-21 reporter: 2%; Rango-impB inh: 1.2%

How did O=C(CSc1ccc(-c2ccco2)nn1)NC1CCCC1 do in these assays?
GLA inh pH 4.5: -4; Rango release inh: -23%; miR-21 reporter: -6%; Rango-impB inh: 2.3%

Results for Cn1c2ccccc2c(=O)c2c(=O)n(Cc3ccccc3)c(-c3ccc(F)cc3)nc21 ?
GLA inh pH 4.5: 1; Rango release inh: -4%; miR-21 reporter: -7%; Rango-impB inh: -1.7%

What do the screens show for `COc1ccc(S(=O)(=O)Nc2cc(C)on2)cc1OC`?
GLA inh pH 4.5: 6; Rango release inh: 0%; miR-21 reporter: -8%; Rango-impB inh: 1.4%

Results for Cc1oc(-c2ccccc2Cl)nc1CS(=O)CC(=O)NCc1ccco1 (configuration not stated) ?
Rango release inh: 6%; miR-21 reporter: -3%; Rango-impB inh: 1.4%

What do the screens show for `CCOCCCN(C(=O)Nc1ccc(CC)cc1)C1CCN(C(C)=O)CC1`?
GLA inh pH 4.5: -12; Rango release inh: 15%; miR-21 reporter: -15%; Rango-impB inh: 6.5%

How did O=C1N[C@H](Cc2ccccc2)C(=O)N[C@H]1Cc1cn(S(=O)(=O)c2ccccc2)c2ccccc12 do in these assays?
Rango release inh: 15%; Rango-impB inh: -3.3%
